FGF22 binding: binders of recombinant human FGF22 by thermal shift; Q9HCT0; SYPRO orange fluorescence; percent of sucrose octasulfate shift, DMSO zero; calls only at 9.99 µM; actives 1.5% (n = 340,000);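 active = melting point raised past a set limit in the mean and every replicate; inconclusive = no clear call; three in four hits are not shown here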
Target sequence (Q9HCT0 whole entry, looked up): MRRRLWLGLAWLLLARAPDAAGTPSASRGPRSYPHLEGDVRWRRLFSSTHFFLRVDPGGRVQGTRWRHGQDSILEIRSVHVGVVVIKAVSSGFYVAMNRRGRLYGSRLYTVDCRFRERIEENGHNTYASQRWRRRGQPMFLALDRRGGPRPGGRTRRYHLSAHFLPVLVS
Ecoli growth: E. coli growth inhibition; actives 0.21% (n = 330,000); OD600 absorbance (test concentration not listed); Escherichia coli growth, OD600, 23 h; active compounds read low;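 active = OD600 absorbance below the run mean of sample wells minus 3.6 SD, in any replicate, cut at about 0.56 in these data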;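 also: stock transfer was 300 nL into about 60 µL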
Ecoli rRNA inh: inhibits bacterial ribosomal RNA function over humanized ribosomes. E. coli WT GFP vs humanized-ribosome RFP mutants, fluorescence, 24 h; active compounds read low; DMSO median 0, no signal -100. GFP signal change (wild-type ribosome), % (no concentration beside the values). actives 1.6% (n = 350,000). AID 720706;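 active = significant combined selectivity score with lowered wild-type GFP, culture density cut under 30%, mutant RFP and density less affected; inactive = any of these conditions unmet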; also: one replicate is shown; some compounds called inactive have numbers as strong as hits
Beta2AR agonist: agonists of human beta-2 adrenergic receptor inducing internalization; response, % (test concentration not listed); P07550; Am2.2-beta2AR cells, FAP receptor internalization, flow cytometry; reference of the scale not given here; actives 0.43% (n = 340,000);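 active = response above a set limit, near 3 SD of response in nonfluorescent compounds, cut at about 42% in these data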;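 also: stock transfer was 100 nL into about 11 µL; a reference agonist was the positive control; negative values mostly stem from fluorescent compounds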
HNF4A DNA FP: change in binding of human HNF4 alpha to DNA. activity change, % at 10 µM. HNF4a-FITC DNA binding, fluorescence polarization, 1 h. actives 0.3% (n = 360,000); in the data active = activity change above about 30%, passing the limit was not always enough;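 also: controls were the assay level and a saturating level of protein; the project sought stronger binding though the title names inhibitors; some compounds called inactive have numbers as strong as hits; positive values seem to mean higher polarization but the record does not say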
Target sequence (P41235 whole entry, looked up): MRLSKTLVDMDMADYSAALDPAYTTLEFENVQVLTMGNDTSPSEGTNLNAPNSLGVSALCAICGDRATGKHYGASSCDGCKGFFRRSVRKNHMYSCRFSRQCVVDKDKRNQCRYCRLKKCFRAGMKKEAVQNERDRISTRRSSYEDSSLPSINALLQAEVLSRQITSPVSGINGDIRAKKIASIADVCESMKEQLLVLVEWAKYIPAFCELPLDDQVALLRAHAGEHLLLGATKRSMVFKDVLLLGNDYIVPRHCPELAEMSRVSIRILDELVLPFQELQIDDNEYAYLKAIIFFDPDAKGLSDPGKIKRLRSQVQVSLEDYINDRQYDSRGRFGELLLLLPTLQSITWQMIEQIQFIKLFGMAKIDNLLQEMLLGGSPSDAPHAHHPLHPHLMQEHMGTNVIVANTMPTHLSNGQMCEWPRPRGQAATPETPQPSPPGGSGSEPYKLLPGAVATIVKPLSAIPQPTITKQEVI
ALR inh: blocks human ALR sulfhydryl oxidase activity; AID 485317; P55789; inhibition, % (no concentration beside the values); actives 3.8% (n = 290,000); purified ALR, DTT oxidation, H2O2 HRP-luminol luminescence;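 active = mean and each replicate at 75% or more; inconclusive = only one of the two met; inactive = neither met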;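 also: stock transfer was 7.5 nL into about 7.5 µL; 0% = neutral wells and 100% = wells with inactivated enzyme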
UCH37 DUB inh: blocks the human deubiquitinase UCH37. Q9Y5K5. purified proteasome/UCH37, Ub-AMC cleavage fluorescence. inhibition, % (test concentration not listed). actives 0.33% (n = 330,000). AID 588478;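 active = mean of two replicates above 20%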;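 also: 0% = compound-free wells with enzyme and 100% = wells lacking proteasome; stock transfer was 100 nL into about 20 µL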
Target sequence (Q9Y5K5 whole entry, looked up): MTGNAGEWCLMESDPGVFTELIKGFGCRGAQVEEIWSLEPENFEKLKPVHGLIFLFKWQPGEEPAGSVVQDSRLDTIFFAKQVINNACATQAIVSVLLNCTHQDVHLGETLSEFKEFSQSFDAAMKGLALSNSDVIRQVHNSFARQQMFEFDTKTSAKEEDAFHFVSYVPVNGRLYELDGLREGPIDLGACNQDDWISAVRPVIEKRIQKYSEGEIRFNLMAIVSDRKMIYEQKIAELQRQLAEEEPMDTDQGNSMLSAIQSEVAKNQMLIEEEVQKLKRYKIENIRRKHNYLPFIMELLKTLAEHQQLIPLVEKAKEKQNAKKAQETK
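Reagent: Ub-AMC substrate; assay system: Proteasome-associated human UCH37 deubiquitinase; controls: no-proteasome and no-compound wells; read-out: % inhibition of Ub-AMC cleavage fluorescence; timing: 30 min preincubation with enzyme, 25 min cleavage at room temperature; signal: AMC fluorescence from Ub-AMC cleavage, excitation 355 nm, emission 460 nm; buffer or medium: Tris-HCl pH 7.4 plus ovalbumin, ATP-MgCl2, DTT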
Ecoli rRNA inh OD600: recorded beside Ecoli rRNA inh, whose call it bears; OD600 change, %; measured here: OD600 growth;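 optical density of the mix in the first replicate; 0 = DMSO median and -100 = no signal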
Ecoli rRNA inh RFP: further read-out of Ecoli rRNA inh, marked with its call; RFP signal change, %; measured here: RFP humanized mutant strains;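 first replicate; 0 = DMSO median and -100 = no signal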
The depositor's hits bear a star; i = inactive; ? = inconclusive; nt = not tested or not shown.

SMILES	FGF22 binding	Ecoli growth	Ecoli rRNA inh	Ecoli rRNA inh OD600	Ecoli rRNA inh RFP	Beta2AR agonist	HNF4A DNA FP	ALR inh	UCH37 DUB inh
O=C(O)c1cc(NCc2ccccc2C(F)(F)F)ccc1N1CCOCC1	nt	0.71	nt	nt	nt	1	3.9	68	2.8
Cc1cc(=O)n(Nc2ccccc2)c(O)c1C#N	i	nt	9	23	1.8	nt	6.4	nt	nt
O=C(NCCc1ccccc1)/C(=C/c1ccco1)c1ccccc1	i	0.72	-8	-11	5.2	4	0.4	10	-0.3
COC(=O)C[C@@H]1C=C[C@H](NC(=O)Nc2ccc(F)cc2)[C@@H](CO)O1	nt	nt	10	17	-1.1	nt	3.5	nt	nt
COc1cc(C(=O)NCCc2c[nH]c3ccccc23)ccc1OCc1c(C)noc1C	i	0.7	-38*	-13*	-3.0*	12	-0.2	16	5.9
COC(=O)CCc1c(C)nn(-c2ccccc2)c1C	nt	0.69	nt	nt	nt	-4	-0.1	-3	-0.6
CCOC(=O)N1CCN(C(=O)CNC(=O)c2ccc(Cl)cc2Cl)CC1	i	0.69	17	13	-2.0	6	2.5	nt	0.9
O=C(CCNC(=O)c1ccc([N+](=O)[O-])cc1)NC1CCCCCC1	i	0.64	6	13	-2.1	0	4.1	-4	-3.4
Cc1cccc(OCCCC(=O)Nc2nccs2)c1C	i	0.72	8	9	-7.5	-2	-4.2	1	5.9
Nc1ccc2c3c(cccc13)C(=O)N(c1ccccc1)C2=O	i	0.68	71	-8	-3.0	-67	-111	nt	-63
Cc1ccccc1-c1nnc(NC(=O)CSc2nc3ccccc3s2)s1	i	0.78	-8	-12	3.0	1	3.4	-1	2.1
Cn1ccnc1SCC(=O)Nc1ccc2ccccc2c1	nt	0.73	nt	nt	nt	-11	-1.6	11	5.7
CCNC(=O)n1nccc1C(C)Oc1ccccc1 (stereo unspecified)	nt	0.65	nt	nt	nt	0	-4.9	nt	4.0
CCc1ccc(NC(=S)N(Cc2cccc(Br)c2)CC2CCC(C(=O)O)CC2)cc1 (stereo unspecified)	i	0.62	-30	-25	-4.0	5	1.1	nt	-0.5
Cn1c(=O)c2c(nc(C3CC4C5CCC(C5)C4C3)n2C)n(C)c1=O (stereo unspecified)	i	nt	nt	nt	nt	-34	4.5	nt	nt
CCCCn1c(SCC(=O)N2CCc3ccccc32)nnc1-c1ccncc1	i	0.69	-9	5	0.3	7	7.1	-5	2.3
Cc1cc(C(=O)CSc2n[nH]c(-c3ccccc3F)n2)c(C)n1Cc1cccs1	nt	0.77	nt	nt	nt	-2	-0.2	nt	3.7
COc1ccc([C@H]2CC(=O)C=C(c3ccnc4ccc(Cl)cc34)C2)cc1	i	0.78	-23	-30	-2.7	-2	4.2	-10	3.8
CCCCc1n[nH]c(=S)n1Cc1ccccc1	i	0.69	-10	-19	-4.7	0	1.7	15	3.2
COc1ccc(C(C)=O)cc1COC(=O)c1cccnc1Cl	i	0.65	-2	-1	2.2	0	1.8	-2	0.6
CCOc1ccccc1NC(=O)C1CCN(S(=O)(=O)c2ccc(OC)c(OC)c2)CC1	i	0.7	7	0	-2.1	0	1.3	-3	2.5
CC(C)[C@@H](C(=O)NCC1CCCO1)N1C(=O)N2CCc3c([nH]c4ccccc34)[C@@]2(C)C1=O (stereo partly specified)	i	0.74	10	0	-3.3	-7	2.0	-7	-0.3
COc1ccc(CN2CCC(Cc3ccccc3)CC2)cc1OC	i	0.61	3	7	-1.1	3	0.5	nt	2.2
COc1ccc(Cl)cc1C(=O)NNC(=O)CSc1nnnn1C	i	0.68	4	2	-1.6	-8	-3.1	-8	-0.8
O=C(N/C(=C\c1ccccc1)C(=O)N1CCOCC1)c1ccccc1Cl	i	0.7	5	12	0.6	1	3.5	2	5.3

Of the compounds above, these contain an NH in an aromatic ring.
SMILES	FGF22 binding	Ecoli growth	Ecoli rRNA inh	Ecoli rRNA inh OD600	Ecoli rRNA inh RFP	Beta2AR agonist	HNF4A DNA FP	ALR inh	UCH37 DUB inh
COc1cc(C(=O)NCCc2c[nH]c3ccccc23)ccc1OCc1c(C)noc1C	i	0.7	-38*	-13*	-3.0*	12	-0.2	16	5.9
Cc1cc(C(=O)CSc2n[nH]c(-c3ccccc3F)n2)c(C)n1Cc1cccs1	nt	0.77	nt	nt	nt	-2	-0.2	nt	3.7
CCCCc1n[nH]c(=S)n1Cc1ccccc1	i	0.69	-10	-19	-4.7	0	1.7	15	3.2
CC(C)[C@@H](C(=O)NCC1CCCO1)N1C(=O)N2CCc3c([nH]c4ccccc34)[C@@]2(C)C1=O (stereo partly specified)	i	0.74	10	0	-3.3	-7	2.0	-7	-0.3

Later entries
SMILES	FGF22 binding	Ecoli growth	Ecoli rRNA inh	Ecoli rRNA inh OD600	Ecoli rRNA inh RFP	Beta2AR agonist	HNF4A DNA FP	ALR inh	UCH37 DUB inh
Cc1cccc(NC(=O)c2sc3ncn(CC(=O)N4CCN(c5ccccn5)CC4)c(=O)c3c2C)c1	i	0.67	-3	-14	9.6	-4	3.6	6	5.2
Nc1nc(SCC(=O)N2CCc3ccccc32)[nH]c(=O)c1-c1ccccc1	i	0.7	-12	2	3.9	-6	1.5	-6	2.9
O=C(CN1CCCc2ccccc21)NC(=O)NC1CCCCC1	i	0.71	16	14	3.8	10	6.7	-4	9.5
COc1ccc(N2CCN(CC(=O)N3c4ccccc4CC3C)CC2)cc1 (stereo unspecified)	i	0.66	-11	-9	1.0	-4	4.0	74	-0.1
O=C(NCC(=O)N1CCOCC1)c1ccc(Cl)cc1	i	0.7	12	10	0.6	-11	0.9	3	1.7
COc1cc(NC(=O)C2CC(=O)NC3=C2C(=O)CC(C)(C)C3)c(OC)cc1Cl (stereo unspecified)	nt	0.67	nt	nt	nt	10	-1.9	-16	3.4
O=C(COc1cccc2cccnc12)N/N=C/c1ccccc1O	i	nt	4	0	-1.2	4	-1.9	nt	nt
CC(C)c1onc(C(=O)N2CCC(C(N)=O)CC2)c1[N+](=O)[O-]	i	0.7	15	5	2.6	-5	5.2	0	2.8
CS(=O)(=O)ON=C1CCN(S(=O)(=O)c2ccccc2)CC1	i	0.65	13	4	0.1	-1	0.6	2	-1.1
O=C(Nc1ccccc1N1CCOCC1)c1cccnc1	i	0.71	6	3	-1.5	0	-2.9	16	0.8
NS(=O)(=O)c1ccc(NC(=O)c2ccc(CSc3ccccc3)o2)cc1	i	0.71	4	8	-1.8	-1	0.5	-6	2.1
CC1CN(C(=O)c2cc(S(=O)(=O)N3CCCC3)c(Cl)cc2Cl)CC(C)O1 (stereo unspecified)	nt	0.72	nt	nt	nt	1	1.2	-1	-2.7
CN1CCC(=NNC(=O)c2ccc(N(Cc3ccccc3Cl)S(C)(=O)=O)cc2)CC1	nt	nt	nt	nt	nt	6	1.8	-12	nt
CS(=O)(=O)c1ccc2nc(NC(=O)CCNC(=O)c3ccc([N+](=O)[O-])cc3)sc2c1	i	0.66	8	8	-1.2	8	-0.5	nt	0.0
COc1cc(NC(=O)c2cc([N+](=O)[O-])ccc2N2CCOCC2)ccc1NC(=O)c1ccco1	i	0.71	-5	-11	-5.5	-2	-1.2	-6	6.4
Cc1[nH]nc(SCC(=O)N2CCC(C)CC2)c1[N+](=O)[O-]	nt	0.69	nt	nt	nt	-5	-2.6	27	3.0
O=C(Nc1ccccc1)c1nc[nH]c1C(=O)NCCCCCCNC(=O)c1[nH]cnc1C(=O)Nc1ccccc1	i	0.73	18	11	4.2	-5	-1.1	-3	-1.3
Cc1ccc(NCCC(=O)c2ccc(Br)cc2)cc1	nt	0.67	nt	nt	nt	3	3.2	-6	3.1
O=C1C=C(c2ccoc2)N2CCC[C@H]2C1	i	0.75	10	7	-0.8	-4	-3.4	1	-11
Cc1ccnn1C(C)C(=O)O (stereo unspecified)	i	0.69	9	6	4.4	1	-2.3	3	3.3
CC1(NC(=O)c2cc(-c3cccs3)nn2-c2ccccc2)CCS(=O)(=O)C1 (stereo unspecified)	i	0.66	0	-4	1.0	-7	0.9	-3	3.5
Cc1ccc(CCNC(=O)C2CCN(S(=O)(=O)N3CCC4(CC3)OCCO4)CC2)cc1	i	0.78	-2	5	0.4	-1	2.5	1	4.5
CCOC(=O)N1CCN(C(=O)CSc2nc3c(cnn3-c3ccccc3)c(=O)[nH]2)CC1	i	0.69	-3	-3	-1.4	-12	-10	-2	2.8
CCC1(CC)C(=O)NC(=O)NC1=NCCc1ccc(O)cc1	nt	0.72	nt	nt	nt	6	-1.5	74	2.4
CCCCc1nnc(NC(=O)Cn2cnc3ccccc3c2=O)s1	i	0.71	4	-12	-2.0	-13	-0.2	8	2.8
The list goes on:
SMILES	FGF22 binding	Ecoli growth	Ecoli rRNA inh	Ecoli rRNA inh OD600	Ecoli rRNA inh RFP	Beta2AR agonist	HNF4A DNA FP	ALR inh	UCH37 DUB inh
CCCS(=O)(=O)NC(=O)C1(C)CCN(C(=O)c2cccc3ccccc23)C1 (stereo unspecified)	i	nt	3	3	2.1	nt	-3.3	nt	nt
CC(C)CNC(=S)NNC(=O)CC(C)O (stereo unspecified)	i	0.72	19	25	2.5	4	3.3	9	3.1
Cc1cccc(NCC(=O)c2c(N)n(C)c(=O)n(C)c2=O)c1C	i	0.68	7	2	4.2	0	0.3	-33	3.4
COc1ccc(NC(=O)C2C(=O)N(CCO)C3(C)CC2c2ccccc2O3)cc1 (stereo unspecified)	nt	0.74	nt	nt	nt	0	-0.5	1	-5.7
COc1ccccc1C(O)(c1ccccc1)C(CN1CCOCC1)c1ccccc1 (stereo unspecified)	i	0.69	-31	-65	-2.2	6	-0.1	4	-3.6
COc1cc(NC(=O)CCN2CCN(c3ccccc3OC)CC2)cc(OC)c1	i	nt	-1	-3	3.3	nt	1.9	nt	nt
Cn1c(=O)[nH]c(=O)c2c1nc(Br)n2CCSc1nnnn1-c1ccccc1	i	0.69	6	11	1.7	-2	-1.6	16	4.5
N#CCSc1nc2scc(-c3cccs3)c2c(=O)n1CCc1ccccc1	nt	0.73	nt	nt	nt	21	2.1	nt	2.5
Cc1ccc2oc(=O)c3cc(C(=O)NCCCN4C(C)CCCC4C)sc3c2c1 (stereo unspecified)	i	0.68	-20	-6	9.2	15	4.9	-8	-27
CC1C(=NO)C(C)C(c2ccc(N(C)C)cc2)NC1c1ccc(N(C)C)cc1 (stereo unspecified)	i	0.71	-19	-23	-0.4	7	1.0	?	1.1
COc1ccc2[nH]c(=O)c(-c3noc(-c4ccccc4)n3)cc2c1	nt	0.76	nt	nt	nt	-1	3.0	4	-25
CC(=O)NCCNC(=O)C1Cc2c(-c3ccccc3)ccnc2O1 (stereo unspecified)	i	nt	1	-1	1.6	nt	0.3	nt	nt
CCOC(=O)N1CCN(C(=O)c2ccc3c(SCC(=O)O)c4c(nc3c2)CCC4)CC1	i	0.69	-1	9	-3.2	3	6.3	80*	-2.2
O=C1CSC(c2ccccc2)N1c1ccc([N+](=O)[O-])cc1 (stereo unspecified)	i	0.64	11	5	7.4	2	2.1	99*	3.6
O=C(O)C1C2C=CC(C2)C1C(=O)N1CCOCC1 (stereo unspecified)	i	0.65	18	11	-2.6	4	1.4	-1	2.6
COc1ccc(/C=C(\C#N)C(=O)NCc2cccnc2)cc1OC	nt	0.73	-27	-24	-1.1	3	1.2	3	5.7
CC1C=CCC2C(=O)N(c3ccccc3OC(=O)c3cccs3)C(=O)C12 (stereo unspecified)	i	0.72	5	3	0.6	4	-1.5	-7	3.8
Cc1[nH]c(N)nc(=S)c1CCCNc1ccccc1	i	0.67	-6	4	-1.3	-1	4.2	nt	7.7
Cc1cccc[n+]1CC(=O)Nc1ccc([N+](=O)[O-])cc1	i	0.72	15	9	0.6	-2	-1.3	-43	6.6

Some of the compounds tested; the hit share may differ from the screen's.
